Screens deposited in PubChem BioAssay by SRMLSC.
H5N1 CPE – antiviral screen in MDCK cells, H5N1 avian flu | cytopathic effect, luminescence, 72 h; hits give high values; no value below 0 was filed and about half of the inactive calls have no number; reference of the scale not given here | inhibition, % at 50 µM | 96,000 compounds, 0.07% hits; in the data active means inhibition above about 25%
* marks the source's active call; other numbers are inactive results. This is a subset, so the mix of outcomes need not match the whole.

How did Cc1ccc2c(c1)C1CN(C)CCC1N2C(=O)Cc1cccs1 (stereo unspecified) do in these assays?
H5N1 CPE: inactive

How did O=C1OC(c2ccccc2)C2(CCCC2)C(=O)C12CCCC2 (stereo unspecified) do in these assays?
H5N1 CPE: inactive

Results for Cn1c(=N)n(CC(=O)c2ccc(Br)s2)c2ccccc21 ?
H5N1 CPE: inactive

How did O=C(NCCc1ccc(Cl)cc1)C1CCN(S(=O)(=O)N2CCCCC2)CC1 do in these assays?
H5N1 CPE: 0.7

How did O=C(NCC1CCCO1)c1ccc(C(=O)NCC2CCCO2)cc1 (stereo unspecified) do in these assays?
H5N1 CPE: inactive

Results for O=C1C2C(C(=O)N1/N=C/c1ccco1)C1C=CC2C12CC2 (stereo unspecified) ?
H5N1 CPE: 0.9

What do the screens show for `CCOC(=O)CNC(=O)CSc1nnc(-c2ccncc2)n1-c1ccc(Cl)cc1`?
H5N1 CPE: inactive

Results for CCOc1ccc(-n2ccnc2SCC(=O)Nc2nnc(CC)s2)cc1 ?
H5N1 CPE: inactive

Results for Cc1ccc(C)n1-c1ccc(N2CCOCC2)nc1 ?
H5N1 CPE: 0.2

What do the screens show for `Cc1ccc(C(C(=O)NCc2ccco2)N(Cc2ccco2)C(=O)CNC(=O)c2ccco2)cc1` (stereo unspecified)?
H5N1 CPE: inactive

Results for CCCSc1nc(N)cc(=O)[nH]1 ?
H5N1 CPE: inactive

How did Cc1ccc(SCCC(=O)Nc2cccc(N(C)S(C)(=O)=O)c2)cc1 do in these assays?
H5N1 CPE: inactive

How did Nc1nonc1C(=O)NCCNCc1cc(Br)ccc1OCc1ccc(F)cc1 do in these assays?
H5N1 CPE: inactive

Results for CCNc1nc(Oc2ccc(C(=O)OC)cc2)nc(SC)n1 ?
H5N1 CPE: 0.3

Results for COc1ccccc1C(CC(N)=O)c1ccco1 (stereo unspecified) ?
H5N1 CPE: 0.1

Results for CCc1ccc(CNc2ccc(O)cc2)cc1 ?
H5N1 CPE: inactive

How did O=C(Nc1sc2c(c1C(=O)NCc1cccnc1)CCCC2)c1ccco1 do in these assays?
H5N1 CPE: inactive

Results for CCOc1ccc(CNC(=O)C2CCN(S(=O)(=O)N3CCCC3)CC2)cc1OC ?
H5N1 CPE: 0.5

Results for Cc1cccc(N=C2NC(=O)/C(=C3/C(=O)N(C)c4ccccc43)S2)c1C ?
H5N1 CPE: inactive

How did Cc1ccc(C)c(OCC(=O)Nc2nc3ccc([N+](=O)[O-])cc3s2)c1C do in these assays?
H5N1 CPE: inactive

Results for CC(C)(C)c1ccc(C(=O)OCCNC(=O)c2c(Cl)nc3ccccn23)cc1 ?
H5N1 CPE: 0.7

What do the screens show for `COc1cc(C)nc(N(C)S(=O)(=O)c2ccccc2Cl)n1`?
H5N1 CPE: 0.1

How did O=C1OC(NC(=O)c2ccccc2)C(N2CCOCC2)=C1Cl (stereo unspecified) do in these assays?
H5N1 CPE: inactive

Results for CC(=O)NC1CC2CCCC(C1)N2CC(=O)NCc1ccc(F)cc1 (stereo unspecified) ?
H5N1 CPE: inactive

How did COc1ccc(N2CCCn3c2nc2c3c(=O)n(Cc3ccccc3F)c(=O)n2C)c(OC)c1 do in these assays?
H5N1 CPE: inactive

Results for COc1ccc(CN2CN=C(Nc3nc4ccccc4s3)NC2)cc1 ?
H5N1 CPE: 1.7

How did O=C(Nc1ccccc1)OCc1cc(-c2ccccc2Cl)on1 do in these assays?
H5N1 CPE: inactive

What do the screens show for `CC(CCc1ccccc1)NC(=O)C1CCCN(C(=O)c2cc3sccc3n2C)C1` (stereo unspecified)?
H5N1 CPE: inactive

How did CCNC(=O)/C(=C/c1ccco1)NC(=O)/C=C/c1ccccc1 do in these assays?
H5N1 CPE: 0.2

What do the screens show for `CCOC(=O)Nc1sc(NS(=O)(=O)c2ccc(C)cc2)nc1C`?
H5N1 CPE: 0.4

Reprinted from the part before: 2 compounds; new compounds follow.
How did CCNC(=O)/C(=C/c1ccco1)NC(=O)/C=C/c1ccccc1 do in these assays?
H5N1 CPE: 0.2

What do the screens show for `CCOC(=O)Nc1sc(NS(=O)(=O)c2ccc(C)cc2)nc1C`?
H5N1 CPE: 0.4

What do the screens show for `CCOc1ccc(N2C(=O)CC(NCCc3ccc(S(N)(=O)=O)cc3)C2=O)cc1` (stereo unspecified)?
H5N1 CPE: 0.8

Results for COc1ccc(Cl)cc1NC(=O)C(=O)N/N=C/c1cc(C)n(-c2ccc(C)cc2)c1C ?
H5N1 CPE: inactive

Results for CCCS(=O)(=O)N1CCN(C(=O)c2cc(OC)cc(OC)c2)CC1 ?
H5N1 CPE: 2.1

How did COc1ccc(Cc2nnc(SCC(=O)NC3CCCCC3)n2C)cc1 do in these assays?
H5N1 CPE: 0.6

What do the screens show for `Cc1ccnc(SCC(=O)Nc2oc(-c3ccccc3)c(-c3ccccc3)c2C#N)n1`?
H5N1 CPE: inactive

Results for O=C(O)c1cccn1Cc1ccccc1F ?
H5N1 CPE: inactive

Results for CC1(C)C(=O)C2(CCCCC2)C(=O)OC1c1cccs1 (stereo unspecified) ?
H5N1 CPE: 0.3

What do the screens show for `CC1(C)CC(=O)C2=C(C1)N(c1ccc(F)cc1)C(=O)CC2c1ccsc1` (stereo unspecified)?
H5N1 CPE: 1.5

What do the screens show for `CN(CCOC(=O)C1c2ccccc2Oc2ccccc21)C(C)(C)C`?
H5N1 CPE: inactive

What do the screens show for `CC1CCCC(C(=O)O)N1C(=O)CCS` (stereo unspecified)?
H5N1 CPE: 0.2

Results for CC(Sc1nc(N2CCCCC2)c2c(c1C#N)CCCC2)C(=O)O (stereo unspecified) ?
H5N1 CPE: 2.7

How did Cc1ccccc1C(=O)NCc1ccncc1 do in these assays?
H5N1 CPE: inactive

How did Cc1cc(NC(=O)c2ccc3nc(C)sc3c2)no1 do in these assays?
H5N1 CPE: 0.4

Results for COc1ccc(CN(CCN(C)C)Cc2ccccc2)c(OC)c1 ?
H5N1 CPE: inactive

What do the screens show for `CC(=O)NS(=O)(=O)c1ccc(NC(=S)NC(=O)C(C)C)cc1`?
H5N1 CPE: 1.1

Results for Cc1ccc(CCN2CC(C(=O)NCCN3CCOCC3)CC2=O)cc1 (stereo unspecified) ?
H5N1 CPE: inactive

How did Clc1ccccc1-c1nnc2sc(CCc3ccccc3)nn12 do in these assays?
H5N1 CPE: inactive

How did COc1ccccc1NC(=S)NNC(=O)c1c(Cl)c(C)nn1C do in these assays?
H5N1 CPE: inactive

Results for CN(C)S(=O)(=O)c1cccc(-c2cn3cc(Cl)ccc3n2)c1 ?
H5N1 CPE: 0.3

What do the screens show for `OC1(c2cccc(C(F)(F)F)c2)CCNCC1`?
H5N1 CPE: inactive

How did COc1ccc(NS(=O)(=O)c2c(C)[nH]c(=O)[nH]c2=O)c(OC)c1 do in these assays?
H5N1 CPE: inactive

Results for Cc1ccc(NC=C(S(=O)(=O)c2ccccc2)S(=O)(=O)c2ccccc2)c(C)c1 ?
H5N1 CPE: 1.6

What do the screens show for `CCc1ccc(OCC(=O)NCCOc2ccccc2)cc1`?
H5N1 CPE: inactive

What do the screens show for `Cn1c2ccccc2c2nnc(SCc3ccc4nonc4c3)nc21`?
H5N1 CPE: 3.9

How did Cc1cc(C)c(NS(=O)(=O)c2ccc(Cl)c(C(=O)O)c2)c(C)c1 do in these assays?
H5N1 CPE: 0.4

Results for N#Cc1c(N)nc(SCC(=O)NC2CCCCC2)c(C#N)c1-c1ccc(Cl)cc1 ?
H5N1 CPE: inactive

What do the screens show for `CCN1CCN(c2ncnc3c2sc(=S)n3-c2ccccc2)CC1`?
H5N1 CPE: inactive

How did O=C(NCCN1C(=O)CCC1=O)c1ccncc1 do in these assays?
H5N1 CPE: inactive

Results for COC(=O)C(NC(=O)c1ccc(Cl)cc1)(Nc1nc(C)cs1)C(F)(F)F (stereo unspecified) ?
H5N1 CPE: inactive

What do the screens show for `Cn1nnnc1SCC(=O)NC(=O)Cc1ccccc1`?
H5N1 CPE: inactive

Results for CCOc1ccc(CCNC(=O)C2CCN(c3nnc(-n4cccc4)s3)CC2)cc1OCC ?
H5N1 CPE: inactive

What do the screens show for `O=C(NC1CCCCCCC1)C1CCCN(S(=O)(=O)c2cnc[nH]2)C1` (stereo unspecified)?
H5N1 CPE: 1.2

What do the screens show for `COc1ccc(NS(=O)(=O)c2ccc3oc(Nc4ccc5c(c4)OCCO5)nc3c2)cc1`?
H5N1 CPE: inactive

What do the screens show for `CC(C)(C)NC(=O)NC(=O)CSc1nnc(-c2ccccc2F)n1N`?
H5N1 CPE: inactive

What do the screens show for `Cc1ccc(-c2cc(C(F)(F)F)n3ncc(C(=O)NCc4ccco4)c3n2)cc1`?
H5N1 CPE: 1.7

What do the screens show for `O=c1[nH]c(=O)n(-c2cccc(Cl)c2)c(O)c1/C=N/c1ccccn1`?
H5N1 CPE: inactive

Results for CC12CC(c3ccccc3O1)N(C(=O)c1ccco1)C(=S)N2c1ccccc1 (stereo unspecified) ?
H5N1 CPE: 12

How did CCOC(=O)c1ccc(NC2c3ccccc3C(=O)N2c2cccnc2)cc1 (stereo unspecified) do in these assays?
H5N1 CPE: inactive

Results for COc1ccc(C(=O)N2CCC(C(=O)Nc3cccc(C)c3)CC2)cc1OC ?
H5N1 CPE: 0.4

How did CCCCCCn1c(=O)c(F)cn(Cc2ccc(OC)c([N+](=O)[O-])c2)c1=O do in these assays?
H5N1 CPE: 2.7

How did Cc1ccccc1NC(NC(=O)c1cccs1)C(Cl)(Cl)Cl (stereo unspecified) do in these assays?
H5N1 CPE: 0.2

What do the screens show for `COC(=O)C1CCN(C(=O)C2CCCCC2)CC1`?
H5N1 CPE: inactive

What do the screens show for `Clc1ccc(Cc2ccc(SCc3ccccc3)nn2)c(Cl)c1`?
H5N1 CPE: inactive

Results for COc1cc(C(=O)Nc2nc3ccc(C)cc3s2)ccc1OCc1c(C)noc1C ?
H5N1 CPE: inactive

What do the screens show for `Cc1cccc(-c2noc(CSc3ccccc3)n2)c1`?
H5N1 CPE: inactive

How did CCOc1ccc(-n2cc(C(=O)N3CCN(C)CC3)c3cc(OC)c(OC)cc3c2=O)cc1 do in these assays?
H5N1 CPE: 0.3

What do the screens show for `CSc1cc(-c2ccc(Cl)cc2)n(Cc2ccccc2)c(=O)c1C#N`?
H5N1 CPE: inactive

What do the screens show for `CN(C)CCCNC(=O)CC(c1ccc(F)cc1)c1ccco1` (stereo unspecified)?
H5N1 CPE: inactive

What do the screens show for `COC(=O)Cc1cc(=O)oc2cc(OC)ccc12`?
H5N1 CPE: 0.4

Results for COC(=O)c1cccnc1NC(=S)NNC(=O)c1ccccc1 ?
H5N1 CPE: inactive

Results for Cc1cccc(N2CCN(CC(=O)Nc3nccs3)CC2)c1C ?
H5N1 CPE: inactive

How did CC(C)CNC(=O)COC(=O)/C=C/c1ccccc1[N+](=O)[O-] do in these assays?
H5N1 CPE: inactive

What do the screens show for `O=C(CC1(O)C(=O)N(C/C=C/c2ccccc2)c2ccccc21)c1ccccn1` (stereo unspecified)?
H5N1 CPE: inactive

What do the screens show for `COC(=O)CN(c1ccc2c(c1)OCCO2)S(=O)(=O)c1ccccc1`?
H5N1 CPE: inactive

Results for O=C(NCCCn1ccnc1)c1ccc(S(=O)(=O)N2CCCCCC2)cc1 ?
H5N1 CPE: inactive

What do the screens show for `S=c1[nH]nc(-c2ccccc2)n1Cc1ccccc1`?
H5N1 CPE: 0.5

Results for COc1cc(/C=N/NC(N)=S)ccc1OCC(=O)Nc1ccc(C)c(C)c1 ?
H5N1 CPE: 0.6

What do the screens show for `C/C(CCc1ccc2c(c1)OCO2)=N\N=C(/N)SC1CC(=O)N(c2ccccc2F)C1=O` (stereo unspecified)?
H5N1 CPE: 0.9

How did CCCc1ccc(OCc2ccc(C(=O)O)o2)c(OC)c1 do in these assays?
H5N1 CPE: inactive

What do the screens show for `CCS(=O)(=O)N1CCN(c2ccc([N+](=O)[O-])c(NC(C)c3ccccc3)c2)CC1` (stereo unspecified)?
H5N1 CPE: inactive

How did CSc1nc2ccc(Nc3nc(N4CCOCC4)nc(N4CCOCC4)n3)cc2s1 do in these assays?
H5N1 CPE: inactive

What do the screens show for `COc1ccc(C(=O)Nc2ccc(-c3cn4ccsc4n3)cc2)cc1S(=O)(=O)N1CCOCC1`?
H5N1 CPE: inactive

How did CCCCCCSc1nsc(NC(C)=O)n1 do in these assays?
H5N1 CPE: inactive

Results for NC(=O)C1CCN(C(=O)C2CCN(S(=O)(=O)c3ccccc3)CC2)CC1 ?
H5N1 CPE: inactive

Results for COc1ccc(/C=C/C(=O)Nc2ccccc2C(F)(F)F)cc1OC ?
H5N1 CPE: 0.5

How did COC(=O)C1=C(C)N(C)C(C)=C(C(=O)OC)C1c1ccccc1C do in these assays?
H5N1 CPE: 0.9

What do the screens show for `COc1ccc(N2CCN(C(=O)CN3C(=O)C4CC=CCC4C3=O)CC2)cc1` (stereo unspecified)?
H5N1 CPE: inactive

In the list so far, 10 contain a furan ring, fused or not.
Results for O=C1C2C(C(=O)N1/N=C/c1ccco1)C1C=CC2C12CC2 (stereo unspecified) ?
H5N1 CPE: 0.9

What do the screens show for `Cc1ccc(C(C(=O)NCc2ccco2)N(Cc2ccco2)C(=O)CNC(=O)c2ccco2)cc1` (stereo unspecified)?
H5N1 CPE: inactive

Results for COc1ccccc1C(CC(N)=O)c1ccco1 (stereo unspecified) ?
H5N1 CPE: 0.1

How did O=C(Nc1sc2c(c1C(=O)NCc1cccnc1)CCCC2)c1ccco1 do in these assays?
H5N1 CPE: inactive

How did CCNC(=O)/C(=C/c1ccco1)NC(=O)/C=C/c1ccccc1 do in these assays?
H5N1 CPE: 0.2

What do the screens show for `Cc1ccnc(SCC(=O)Nc2oc(-c3ccccc3)c(-c3ccccc3)c2C#N)n1`?
H5N1 CPE: inactive

What do the screens show for `Cc1ccc(-c2cc(C(F)(F)F)n3ncc(C(=O)NCc4ccco4)c3n2)cc1`?
H5N1 CPE: 1.7

Results for CC12CC(c3ccccc3O1)N(C(=O)c1ccco1)C(=S)N2c1ccccc1 (stereo unspecified) ?
H5N1 CPE: 12

What do the screens show for `CN(C)CCCNC(=O)CC(c1ccc(F)cc1)c1ccco1` (stereo unspecified)?
H5N1 CPE: inactive

How did CCCc1ccc(OCc2ccc(C(=O)O)o2)c(OC)c1 do in these assays?
H5N1 CPE: inactive
